Hsc70 ATP site: small molecules displacing fluorescent ligand from Hsc70 – biochemical, fluorescence polarization, primary screen (AID 568) | Hsc70 fluorescence polarization, probe displacement; higher % means a stronger effect; strong numbers were not always called active | 83,000 tested, under 10 active | displacement, % at 20 µM, or IC50 in µM where a hit was titrated;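 active means displacement above 50% without optical interference and an IC50 on retest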;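 further: ATPase domain with a fluorescein-tagged ATP probe; 0% = vehicle and 100% = excess ADP; read after one hour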
WNV NS2B-NS3 inh: inhibitors of West Nile virus NS2B-NS3 protease | 0.18% of 65,000 active | z-score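 (tested at a level between 10 and 100 µM)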 | P06935 | WNV NS2B-NS3 protease, fluorogenic substrate Ex360/Em465; hits give low values | AID 577;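 active means z-score at -3 or under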;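 further: score is relative to mean and spread of the compound wells of a plate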
Target sequence (P06935 1371-1501 limits assumed): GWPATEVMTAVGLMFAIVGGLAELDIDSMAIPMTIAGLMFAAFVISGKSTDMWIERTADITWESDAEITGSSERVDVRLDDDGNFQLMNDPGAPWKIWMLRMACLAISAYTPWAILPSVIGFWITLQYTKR
Target sequence (P06935 1502-1679 limits assumed): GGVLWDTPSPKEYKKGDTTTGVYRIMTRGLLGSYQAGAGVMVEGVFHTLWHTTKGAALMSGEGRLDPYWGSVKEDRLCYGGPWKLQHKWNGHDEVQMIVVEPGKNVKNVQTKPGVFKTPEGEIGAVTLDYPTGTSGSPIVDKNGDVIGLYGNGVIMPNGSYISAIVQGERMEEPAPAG
MT1-MMP reporter: inhibitors of MT1-MMP promoter transcription, cell-based, luciferase reporter, luminescence (AID 618); MT1-MMP promoter luciferase reporter cells, luminescence; calls from a first round at 10 µM; hits with a dose series show EC50 in µM; 0.62% of 87,000 active;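 active means over half of the reporter light lost at 10 µM or EC50 under 50 µM; inactive means the rest and hits that failed the dose series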;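 further: actives suppress MT1-MMP promoter-driven transcription so potencies describe inhibitors; HT1080 fibrosarcoma cells; overnight exposure; toxic or luciferase-blocking compounds were not removed from the actives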
An asterisk follows results filed as active; i = inactive; x = no result given. This is a subset; the hit share may differ from the screen's.

structure | Hsc70 ATP site | WNV NS2B-NS3 inh | MT1-MMP reporter
O=c1[nH]c2cc3c(cc2cc1CN(Cc1cccs1)Cc1nnnn1Cc1ccco1)OCCO3 | -5.8% | -0.57 | i
CC1=C(C(=O)Nc2ccc(C)cc2)C(c2ccc(C)o2)C2=C(CC(C)(C)CC2=O)N1 (stereo unspecified) | -4.6% | -0.39 | i
COc1ccc(S(=O)(=O)N2c3cc(Cl)ccc3Oc3nc4ccccc4nc32)cc1 | 2.6% | x | i
Cc1ccc(C(=O)N(c2ccccc2)C2CC(C)N(C(=O)c3ccco3)c3ccccc32)cc1 (stereo unspecified) | -3.3% | x | i
CCN(CC)CCNC(=O)Cc1c(C(=O)O)n(CC)c2ccccc12 | -8.9% | 0.93 | i
O=C(O)C1C2C=CC(C2)C1C(=O)NCCCn1ccnc1 (stereo unspecified) | -6.2% | -1.4 | i
COc1ccc(-c2cc(C(F)(F)F)nc(NCc3cccnc3)n2)cc1 | -2.9% | x | i
CCNS(=O)(=O)c1ccc(C)c(-n2cnnn2)c1C | -6.5% | x | i
COc1ccc(C2(O)CC3CCC(C2)N3c2nc(C)cc(C)c2C#N)cc1 (stereo unspecified) | 3.6% | -0.19 | i
CCN(CC)CCN1C(=O)C(O)=C(C(C)=O)C1c1ccccc1 (stereo unspecified) | -2.2% | 0.94 | i
CC1=C(C(=O)N(C)C)C(c2cccs2)NC(=O)N1 (stereo unspecified) | 6.6% | x | i
CCOC(=O)c1c(NC(=O)c2csc(C)c2)sc(C(C)=O)c1C | -2.2% | -0.57 | i
Cc1[nH]nc2c1C(C(C)C)C(C#N)=C(N)O2 (stereo unspecified) | 3.5% | 0.03 | i
COc1cccc(N(C(=O)c2ccn[nH]2)C2(C(=O)Nc3c(C)cccc3C)CCCCC2)c1 | -6.7% | -0.67 | i
N#Cc1c(N)nc(SCC(=O)NCc2ccc3c(c2)OCO3)c(C#N)c1-c1cccs1 | -4.0% | 0.25 | i
O=C(CCN1Cc2ccccc2C1)c1ccc2c(c1)OCCO2 | 4.1% | 0.09 | i
Cc1cc2ncn(/N=C/c3cc(Br)ccc3O)c2cc1C | -3.0% | -1.2 | i
O=C(c1cc(F)c(F)cc1Cl)N1CCOCC1 | -26% | -0.35 | i
CNC(=O)NC(=O)CSc1cccc(C(F)(F)F)c1 | 2.5% | 1.4 | i
COc1ccc(Cc2nnnn2CC(=O)O)cc1 | -6.6% | -0.69 | i

Quoted from the listing (6 entries):
structure | Hsc70 ATP site | WNV NS2B-NS3 inh | MT1-MMP reporter
O=c1[nH]c2cc3c(cc2cc1CN(Cc1cccs1)Cc1nnnn1Cc1ccco1)OCCO3 | -5.8% | -0.57 | i
CC1=C(C(=O)Nc2ccc(C)cc2)C(c2ccc(C)o2)C2=C(CC(C)(C)CC2=O)N1 (stereo unspecified) | -4.6% | -0.39 | i
COc1ccc(S(=O)(=O)N2c3cc(Cl)ccc3Oc3nc4ccccc4nc32)cc1 | 2.6% | x | i
Cc1ccc(C(=O)N(c2ccccc2)C2CC(C)N(C(=O)c3ccco3)c3ccccc32)cc1 (stereo unspecified) | -3.3% | x | i
CCN(CC)CCNC(=O)Cc1c(C(=O)O)n(CC)c2ccccc12 | -8.9% | 0.93 | i
O=C(O)C1C2C=CC(C2)C1C(=O)NCCCn1ccnc1 (stereo unspecified) | -6.2% | -1.4 | i

New compounds follow:
structure | Hsc70 ATP site | WNV NS2B-NS3 inh | MT1-MMP reporter
Cc1nnc(SCC(=O)NCc2ccco2)n1Cc1ccccc1 | -1.7% | x | i
Cc1ccc(-c2cc(C(F)(F)F)n3ncc(C(=O)N4CCN(C)CC4)c3n2)cc1 | -5.4% | -0.95 | i
O=C1NC(c2ccco2)Nc2ccccc21 (stereo unspecified) | 3.2% | 1.4 | i
Cc1noc(NS(=O)(=O)c2ccc(N/C=C/C(=O)c3cccnc3)cc2)c1C | -9.7% | -1.5 | i
CCOC(=O)c1c(NC(=O)CSc2nc(C)cc(C)c2C#N)sc(C(C)=O)c1C | 2.6% | 0.18 | i
Cn1nnc2cc(C(=O)Nc3cccnc3)ccc21 | 6.6% | 1.2 | i
CCOC(=O)N1CCC(NC(=O)c2cccc3c2C(=O)N(CCOC)C3)CC1 | 1.3% | 0.69 | i
Cc1c(NC(=O)c2cccc(NC(=O)c3ccco3)c2)cccc1C(=O)O | 0.1% | 0.31 | i
Cc1cc(C)nc(Sc2ccc3nnnn3n2)n1 | 3.1% | 0.95 | i
O=C(CSc1nnc(Cc2cc(=O)[nH]c(=O)[nH]2)n1-c1ccc(Cl)cc1)NCC1CCCO1 (stereo unspecified) | 2.0% | 1.3 | i
O=c1nc(NCc2ccco2)sc2ncccc12 | 6.9% | -0.84 | i
Nc1nnc(SCC(=O)Nc2ccccc2N2CCOCC2)s1 | 2.4% | -0.17 | i
C/C(=N\O)C1(C)N(O)C(C)(C)C(c2ccco2)=[N+]1[O-] (stereo unspecified) | -4.1% | -0.64 | i
CCOC(=O)C1=C(N)OC2=C(C(=O)CC(C)(C)C2)C1c1ccco1 (stereo unspecified) | -0.1% | 0.21 | i
CC(=O)Nc1ccc(S(=O)(=O)N2CCN(Cc3ccccn3)CC2)cc1 | -1.3% | x | i
CCN1C(=O)c2ccc(C(=O)NCc3ccc4c(c3)OCO4)cc2C1=O | -2.8% | x | i
CSc1ccc(Cl)c(C(=O)NCC(C)C)c1 | 13% | -0.42 | i
Nc1ccc(C(=O)c2ccc3c(c2)OCCO3)cc1N | -4.7% | -0.75 | i
COc1ccc(C2(O)CCN(C(=O)c3ccc4c(c3)OCO4)CC2)cc1 | 4.7% | -0.18 | i
CCC(=O)N1c2ccccc2NC2=C(C(=O)CCC2)C1c1ccccc1 (stereo unspecified) | 6.5% | x | i

(continued)
structure | Hsc70 ATP site | WNV NS2B-NS3 inh | MT1-MMP reporter
COc1ccc(-n2cnc3cc(NCc4cccs4)ccc32)cc1 | 3.8% | -1.4 | i
COc1cccc(-c2nnc(SCC(N)=O)n2-c2ccc(Cl)cc2)c1 | 4.4% | 1.4 | i
Cc1n[nH]c(C)c1S(=O)(=O)N(CC(=O)N1CCc2ccccc21)c1ccc(C(C)C)cc1 | -6.6% | -0.78 | i
Nc1nc2n(n1)C(c1cccs1)CC(c1ccccc1)N2 (stereo unspecified) | 1.9% | -0.04 | i
CC(C)OC(=O)CSc1nnc(-c2cccnc2)n1Cc1ccccc1 | 2.4% | -0.23 | i
CN1C(=O)C(CC(N)=O)N(NC(=O)c2ccc(Cl)cc2)C1=S (stereo unspecified) | 6.0% | x | i
COc1ccc(CCC(=O)NCc2cnn(C)c2)cc1 | 0.9% | 1.7 | i
CC1CC1C(=O)Nc1nc(-c2ccccc2)cs1 (stereo unspecified) | -0.4% | x | i
COc1ccc(S(=O)(=O)N2CCCC2C(=O)Nc2nc3c(s2)CCCC3)cc1 (stereo unspecified) | 1.1% | 0.81 | i
CC(=O)C1C(c2cccc(F)c2)NC(=O)NC1(O)C(F)(F)F (stereo unspecified) | -2.3% | -1.8 | i
CC(=O)Nc1ccc(S(=O)(=O)N2CCN(C(=O)c3ccccc3F)CC2)cc1 | 7.0% | x | i
COC(=O)C1CSc2[nH]c(=O)sc2C1c1ccc(OC)c(OC)c1 (stereo unspecified) | 0.7% | x | i
NC(=O)C1CCN(C(c2ccccc2)c2nnnn2C2CCCC2)CC1 (stereo unspecified) | 8.2% | x | i
Cc1ccc(S(=O)(=O)CC(=O)Nc2ccc(S(=O)(=O)Nc3onc(C)c3C)cc2)cc1 | 1.8% | 0.06 | i
CC(C)/C=C1\CCCCC1N(C)C(=O)NC(C)C (stereo unspecified) | -0.5% | 1.4 | i
COc1cccc(C2=NOC(C(=O)NC(C)(C)C)C2)c1 (stereo unspecified) | -1.3% | 0.42 | i
Cc1nc(Nc2ccccc2)[nH]c(=O)c1CCC(C)C | -3.5% | -0.44 | i
CCOC(=O)N1CCN(C(=O)C2CC(c3cc(OC)ccc3OC)=NO2)CC1 (stereo unspecified) | -1.1% | 0.09 | i
CCOc1ccc(N(CC)C(=O)COc2cc(=O)n(C)c3ccccc23)cc1 | 0.7% | 0.34 | i
CC(C)OC(=O)c1c(NS(=O)(=O)c2ccccc2)sc2c1CCCC2 | -3.6% | x | i

The last two records of the section before lead into the next.
structure | Hsc70 ATP site | WNV NS2B-NS3 inh | MT1-MMP reporter
CCOc1ccc(N(CC)C(=O)COc2cc(=O)n(C)c3ccccc23)cc1 | 0.7% | 0.34 | i
CC(C)OC(=O)c1c(NS(=O)(=O)c2ccccc2)sc2c1CCCC2 | -3.6% | x | i
O=C(COc1ccc(S(=O)(=O)NC2CCCCC2)cc1)NC1CCCCC1 | 0.5% | x | i
CC(Nc1ccc(Br)cn1)c1cc(Cl)ccc1O (stereo unspecified) | -0.5% | 1.1 | i
CCCN(c1nc(C)cc(OC)n1)S(=O)(=O)c1ccccc1 | -2.6% | 0.54 | i
CC(C)NC(=O)Cn1nc(C(F)(F)F)c2c1CCC2 | -2.3% | x | i
CCN1CCN(c2ncc3c(n2)CC(c2ccc(OC)c(OC)c2)CC3=O)CC1 (stereo unspecified) | 0.2% | -1.5 | i
COc1ccc(-c2cc(=O)c3ccccc3s2)cc1 | 3.8% | -0.54 | i
COc1ccccc1N(CC(=O)Nc1ccc2c(c1)OCO2)S(=O)(=O)c1ccccc1 | 2.9% | -0.0039 | i
CCOC(=O)c1ccc(S(=O)(=O)N2CCN(C)CC2)cc1 | -1.7% | x | i
CCCc1cc(-c2ccc(O)c(OCC)c2)c(C#N)c(N)n1 | 5.1% | -0.22 | i
O=C(CN1C(=O)COc2ccccc21)NCc1ccccn1 | -1.2% | x | i
CC(=O)c1ccc(N2CCN(C(=O)C3CCCN(S(=O)(=O)c4cnc[nH]4)C3)CC2)cc1 (stereo unspecified) | -1.9% | -1.1 | i
Cc1nc2ccccc2n1CC(=O)NCCN1CCOCC1 | 6.1% | x | i
CC(=O)Nc1cccc(C(=O)Oc2cccc(C)c2)c1O | 91% | -0.75 | i
CCCCn1c(SCc2nnc(-c3ccccc3)o2)nc2c1c(=O)n(C)c(=O)n2C | -4.9% | -0.43 | i
CC(C)c1nc2sc3c(NCc4ccco4)ncnc3c2c2c1COC(C)(C)C2 | -9.2% | -0.25 | i
CCCCn1cc(C(=O)c2cc(Br)ccc2O)cc(C#N)c1=O | -2.2% | x | i
O=C(Nc1ccc(NC(=O)c2ccco2)cc1)c1cnccn1 | 0.8% | -0.47 | i
O=C(CC(NS(=O)(=O)c1ccc(Cl)cc1)c1ccco1)N1CCc2ccccc21 (stereo unspecified) | 0.6% | x | i
CCOc1ccccc1C(=O)NC(CO)C(=O)O (stereo unspecified) | -1.4% | x | i
O=C(NC1CCS(=O)(=O)C1)c1ccc(S(=O)(=O)NCC2CCCO2)cc1 (stereo unspecified) | 7.1% | -2 | i

New compounds follow
structure | Hsc70 ATP site | WNV NS2B-NS3 inh | MT1-MMP reporter
Cc1ccc(C(C)NC(=O)C2CCCO2)cc1C (stereo unspecified) | 6.0% | 0.68 | i
CCN(CC)c1cc2nonc2c2nonc12 | -2.1% | -0.82 | i
CC(=C1C(=O)c2ccccc2C1=O)N1CCN(Cc2ccccc2)CC1 | 0.8% | -0.29 | i
Cc1nc(NNC(=O)c2ccc(Cl)cc2Cl)cc(-c2ccccc2)n1 | 0.7% | x | i
CC(C)OCCCNC(=O)c1c(N)n(/N=C/c2ccccn2)c2nc3ccccc3nc12 | 0.9% | -0.23 | i
CCCCCn1c(CNC(=O)c2cccs2)nc2ccccc21 | -3.9% | x | i
O=C(O)CCN=C1CCc2ccccc2N1 | -0.4% | x | i
CCOC(=O)c1ccccc1NC(=O)C(C)Oc1ccccc1 (stereo unspecified) | 7.2% | -0.51 | i
CC(C)c1c(O)nc(SCc2ccccc2)[nH]c1=O | -4.2% | -0.91 | i
COc1ccc(C(=O)NCC(=O)NC2=NCCS2)cc1 | -3.1% | 0.32 | i
COc1cccc(-c2nnc3n2N=C(c2cccc(Br)c2)CS3)c1 | 1.3% | -0.43 | i
COc1ccc(Cl)cc1S(=O)(=O)N1CCN(CC(=O)C(C)(C)C)CC1 | -8.0% | -0.01 | i
CCN(CC)CCNC(=O)c1cn(-c2ccccc2)nc1-c1cccs1 | -1.3% | x | i
CSc1nc(N)c2c3c(sc2n1)COC(C(C)C)C3 (stereo unspecified) | -0.7% | x | i
CCOC(=O)c1ccc2ncc(C(=O)OCC)c(NCCCN3CCOCC3)c2c1 | 4.3% | 0.47 | i
CCCN1CCN(CCCNC(=O)Cn2nc(-c3ccccc3)ccc2=O)CC1 | -1.1% | 1.1 | i
Cc1ccc(Cn2nnc3c(=O)n(CC(=O)NCC4CCCO4)cnc32)cc1 (stereo unspecified) | 3.9% | 0.21 | i
COc1ccc(OCCSc2nc3ccccc3c(=O)[nH]2)cc1 | -0.2% | 1.1 | i
CCS(=O)(=O)NCCc1csc(C)n1 | 1.2% | -0.23 | i
Cc1cc(NC(=O)COC(=O)c2c(C)nn(-c3ccccc3)c2C)no1 | -0.7% | -1.1 | i

More records follow.
structure | Hsc70 ATP site | WNV NS2B-NS3 inh | MT1-MMP reporter
CCC(C)NC(=O)Nc1ccccc1C (stereo unspecified) | 4.6% | x | i
N=c1c(S(=O)(=O)c2ccc(Cl)cc2)cc2c(=O)n3ccccc3nc2n1CCN1CCOCC1 | 4.0% | 0.42 | i
COc1ccc(N(CC(=O)N2CCc3ccccc3C2)S(C)(=O)=O)cc1OC | -1.5% | x | i
O=C(OCCCN1C(=O)c2ccccc2C1=O)c1ccco1 | -3.6% | -0.46 | i
CN1CCN(Cc2nc3c([nH]2)c(=O)[nH]c(=O)n3C)CC1 | 3.0% | 0.19 | i
COC(=O)C(C#N)c1nc2ccccc2nc1N1CCCC1 (stereo unspecified) | 2.8% | 0.44 | i

Bioassay records from PubChem.
